DUX4 txn inh: blocks DUX4-driven transcriptional activation; 293T-iDUX4 ZSCAN4-Gaussia luciferase reporter, 24 h; stronger effect = lower value; activity change, negative = inhibition, % (concentration not given with the values); 0.8% of 37,000 active; AID 1224904;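 active = -10% or lower and over 25 points stronger than a control reporter; inconclusive = -10% or lower with a smaller gap; inactive = above -10%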;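 note: 0% = median of neutral control wells and -100% = median of positive control wells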
DUX4 txn inh difference: also measured in DUX4 txn inh; calls as there; Gaussia minus Italica difference, %; measured here: selective DUX4 reporter inhibition;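 worked out from the two reporters; negative = selective loss of the DUX4 reporter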
DUX4 txn inh control: second read-out of DUX4 txn inh, no call of its own (marks repeat the call); activity change, negative = inhibition, %; measured here: Italica tet-on control reporter;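 0 = neutral control and -100 = positive control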
Starred values were filed as active, the others as inactive; ? = inconclusive; / = not tested or not shown.

SMILES | DUX4 txn inh | DUX4 txn inh difference | DUX4 txn inh control
CNC[C@H]1OCCCC[C@@H](C)Oc2ccc(NC(=O)c3ccncc3)cc2C(=O)N([C@H](C)CO)C[C@H]1C | 0 | -2 | 2.1
COc1ccc2c3c(n(C)c2c1)[C@@H](CO)N(Cc1ccncc1)CC31CCN(C(=O)C2CC2)CC1 | 5 | -2 | 6.9
CC(C)COC(=O)N(C)C[C@H]1OCc2ccccc2-c2ccccc2C(=O)N([C@H](C)CO)C[C@@H]1C | 6 | 1 | 4.4
CC=Cc1ccc2n(c1=O)C[C@@H]1[C@@H](CO)[C@H](C(=O)NCC)[C@H]2N1C(=O)c1ccccc1 (mixture of isomers) | 2 | -4 | 5.8
CCCNC(=O)N1CC(=O)N2[C@H](C1)[C@H](c1ccc(C#CCC3CCCC3)cc1)[C@@H]2CO | -6 | -1 | -5.1
O=C(Nc1ccccc1F)N1CCCCN2[C@H](CO)[C@@H](c3ccc(C4=CCCC4)cc3)[C@@H]2C1 | 6 | -5 | 10
CO[C@@H]1CN(C)C(=O)c2ccc(NC(=O)Nc3c(C)noc3C)cc2OC[C@H](C)N(CCC(F)(F)F)C[C@H]1C | 5 | 1 | 3.3
CC(=O)N1[C@@H]2c3ccc(-c4ccccc4)c(=O)n3C[C@@H]2[C@@H](CO)[C@@H]1C(=O)NCc1ccccc1F | -8 | -16 | 7.8
O=C(c1ccccc1)N1CC2(C1)[C@H](c1ccccc1)[C@H](CO)N2Cc1ccccn1 | -7 | -5 | -2.2
Cc1ccc(S(=O)(=O)N2C[C@@H](O)COC[C@@H]3O[C@@H](CC(=O)NCc4ccc(Cl)c(Cl)c4)CC[C@H]32)cc1 | ? | / | /
C[C@H]1CN([C@@H](C)CO)C(=O)CCCn2nncc2CO[C@@H]1CN(C)S(=O)(=O)c1ccc(-n2cccn2)cc1 | -1 | -3 | 1.6
C[C@@H]1CN([C@H](C)CO)C(=O)c2ccccc2-c2ccccc2CO[C@@H]1CN(C)C(=O)C1CC1 | -3 | -6 | 3.1
CO[C@@H]1CN(C)C(=O)c2ccc(NS(C)(=O)=O)cc2OC[C@H](C)N(C(=O)C2CCCCC2)C[C@@H]1C | 4 | -2 | 6.4
C[C@@H]1CN([C@H](C)CO)C(=O)c2ccccc2-c2ccccc2CO[C@@H]1CN(C)S(=O)(=O)c1ccccc1F | 5 | -2 | 6.7
CNC[C@@H]1OCc2cn(nn2)CCCC(=O)N([C@@H](C)CO)C[C@@H]1C | 5 | 1 | 4.1
CO[C@@H]1CN(C)C(=O)c2ccc(NS(C)(=O)=O)cc2OC[C@H](C)N(Cc2ccccn2)C[C@H]1C | 1 | -1 | 1.2
C[C@H](CO)N1C[C@H](C)[C@@H](CN(C)Cc2ccc3c(c2)OCO3)Oc2ccc(NC(=O)c3ccncc3)cc2CC1=O | -1 | 4 | -5.0
CN(C)C(=O)c1cccc(-c2ccc([C@H]3[C@@H](CO)N(C(=O)C4CCC4)[C@H]3C#N)cc2)c1 | -1 | -1 | 0.0
COc1ccccc1NC(=O)N1C[C@@H]2[C@H](c3ccccc31)[C@@H](CO)N2CC1CCOCC1 | 3 | -3 | 5.9
C[C@@H]1CCCCO[C@@H](CN(C)C(=O)NC2CCCCC2)[C@H](C)CN([C@@H](C)CO)C(=O)c2cc(NC(=O)Nc3cccc4ccccc34)ccc2O1 | 2 | -1 | 2.8
Cc1noc(C)c1NC(=O)Nc1ccc2c(c1)CC(=O)N([C@H](C)CO)C[C@@H](C)[C@H](CN(C)S(=O)(=O)c1cccs1)O2 | 4 | -3 | 7.3
CCC(=O)N1[C@H](CO)[C@@H](c2ccccc2)[C@@H]1CN(CC)C(=O)c1cccc(F)c1 | 1 | 0 | 0.5
COC(=O)C[C@@H]1C[C@@H]2c3cc(NC(=O)Nc4ccc(C(F)(F)F)cc4)ccc3O[C@@H]2[C@@H](CO)O1 | ? | / | /
COc1ccc2c3c([nH]c2c1)[C@@H](CO)N(S(=O)(=O)c1cn(C)cn1)CC31CCN(Cc2ccccc2F)CC1 | ? | / | /
C[C@H]1CCCCO[C@H](CN(C)S(=O)(=O)c2ccc(F)cc2)[C@@H](C)CN([C@@H](C)CO)C(=O)c2cc(N(C)C)ccc2O1 | -3 | -7 | 4.7
O=C(c1cccc(F)c1)N1CC2(C1)[C@@H](c1ccccc1)[C@@H](CO)N2C(=O)C1CC1 | 3 | 5 | -2.1
CC(C)OC(=O)N(C)C[C@@H]1OCc2ccccc2-c2c(n(C)c3ccccc23)C(=O)N([C@H](C)CO)C[C@@H]1C | ? | / | /
CO[C@H]1CN(C)C(=O)c2cccc(C#N)c2OC[C@@H]2O[C@@H](CC[C@H]2OC)CCN(C)C(=O)[C@H]1C | 0 | 0 | -0.3
O=C(c1ccc2c(c1)OCO2)N1CCCCN2[C@@H](CO)[C@H](c3ccc(-c4ccccc4)cc3)[C@@H]2C1 | -3 | -6 | 2.6
CO[C@H]1CN(C)C(=O)c2cc(NS(=O)(=O)c3cccc(Cl)c3)ccc2OC[C@@H](C)NC[C@@H]1C | 3 | 4 | -1.6
C[C@H](CO)N1C[C@H](C)[C@@H](CN(C)S(=O)(=O)c2cccs2)Oc2ccc(NC(=O)CCCCCC(=O)Nc3ccccc3N)cc2CC1=O | -3 | -2 | -1.3
COc1ccc2c3c(n(C)c2c1)[C@H](CO)N(C(C)=O)CC31CCN(Cc2cncnc2)CC1 | 12 | 9 | 2.9
O=C(c1cccnc1)N1C[C@H]2[C@@H](c3ccccc31)[C@@H](CO)N2C(=O)Nc1cccc(F)c1 | -4 | -4 | -0.5
C/C=C/c1ccc([C@@H]2[C@@H](CO)N(C(=O)CC)[C@@H]2CNC(=O)C2CC2)cc1 | 0 | 3 | -2.9
Cc1noc(C)c1NC(=O)N(C)C[C@@H]1OCc2ccccc2-c2ccccc2C(=O)N([C@@H](C)CO)C[C@@H]1C | 20 | 12 | 7.9
Cc1ccc(S(=O)(=O)Nc2ccc3c(c2)C(=O)N([C@@H](C)CO)C[C@H](C)[C@@H](CN(C)C(=O)NC2CCCCC2)OCCCC[C@@H](C)O3)cc1 | 0 | 1 | -0.9
COCC(=O)N(C[C@@H]1N[C@@H](CO)[C@H]1c1ccc(-c2cccnc2)cc1)C(C)C | 2 | 3 | -1.1
CCN1[C@H](C(=O)OC)[C@@H](CO)[C@@H]2Cn3c(ccc(-c4cncnc4)c3=O)[C@@H]21 | 7 | 8 | -1.5
N#C[C@H]1[C@@H](c2ccccc2C2=CCCC2)[C@H](CO)N1C(=O)CN1CCOCC1 | 10 | 4 | 6.5
CO[C@@H]1CN(C)C(=O)c2ccc(NS(C)(=O)=O)cc2OC[C@H](C)N(S(C)(=O)=O)C[C@H]1C | 1 | -3 | 4.3

For convenience, some entries already given:
SMILES | DUX4 txn inh | DUX4 txn inh difference | DUX4 txn inh control
C[C@H]1CCCCO[C@H](CN(C)S(=O)(=O)c2ccc(F)cc2)[C@@H](C)CN([C@@H](C)CO)C(=O)c2cc(N(C)C)ccc2O1 | -3 | -7 | 4.7
O=C(c1cccc(F)c1)N1CC2(C1)[C@@H](c1ccccc1)[C@@H](CO)N2C(=O)C1CC1 | 3 | 5 | -2.1
CC(C)OC(=O)N(C)C[C@@H]1OCc2ccccc2-c2c(n(C)c3ccccc23)C(=O)N([C@H](C)CO)C[C@@H]1C | ? | / | /
CO[C@H]1CN(C)C(=O)c2cccc(C#N)c2OC[C@@H]2O[C@@H](CC[C@H]2OC)CCN(C)C(=O)[C@H]1C | 0 | 0 | -0.3
O=C(c1ccc2c(c1)OCO2)N1CCCCN2[C@@H](CO)[C@H](c3ccc(-c4ccccc4)cc3)[C@@H]2C1 | -3 | -6 | 2.6
CO[C@H]1CN(C)C(=O)c2cc(NS(=O)(=O)c3cccc(Cl)c3)ccc2OC[C@@H](C)NC[C@@H]1C | 3 | 4 | -1.6
C[C@H](CO)N1C[C@H](C)[C@@H](CN(C)S(=O)(=O)c2cccs2)Oc2ccc(NC(=O)CCCCCC(=O)Nc3ccccc3N)cc2CC1=O | -3 | -2 | -1.3
COc1ccc2c3c(n(C)c2c1)[C@H](CO)N(C(C)=O)CC31CCN(Cc2cncnc2)CC1 | 12 | 9 | 2.9
O=C(c1cccnc1)N1C[C@H]2[C@@H](c3ccccc31)[C@@H](CO)N2C(=O)Nc1cccc(F)c1 | -4 | -4 | -0.5
C/C=C/c1ccc([C@@H]2[C@@H](CO)N(C(=O)CC)[C@@H]2CNC(=O)C2CC2)cc1 | 0 | 3 | -2.9

(list continues)
SMILES | DUX4 txn inh | DUX4 txn inh difference | DUX4 txn inh control
CCC(=O)N1CC2(C1)[C@@H](c1ccc(-c3ccc(F)cc3)cc1)[C@@H](CO)N2C(C)=O | 11 | 12 | -0.6
Cn1cnc(S(=O)(=O)N2C[C@H](O)COC[C@H]3O[C@H](CC(=O)NCc4cccc(F)c4)CC[C@@H]32)c1 | 2 | -8 | 10
CN(C)CC(=O)N1[C@H](CO)[C@@H](c2ccccc2)C12CN(C(=O)c1ccccc1)C2 | 9 | 11 | -2.5
CCCNC(=O)N1[C@@H]2CN(C(=O)c3ccc(F)cc3)c3ccccc3[C@@H]2[C@@H]1CO | -2 | -1 | -1.4
CN1C(=O)c2cc(NC(=O)c3cccc(C(F)(F)F)c3)ccc2OC[C@H]2O[C@H](CC(=O)NCCN3CCCC3)CC[C@@H]21 | -3 | 0 | -2.2
Cc1cccc(-c2ccc([C@H]3[C@@H](CO)N4CCCCN(CCC(F)(F)F)C[C@H]34)cc2)c1 | -39* | -39* | -0.4*
O=C(NCCc1ccccc1)[C@@H]1[C@@H](CO)[C@@H]2Cn3c(ccc(-c4ccccc4)c3=O)[C@H]1N2 | 4 | 7 | -3.5
O=C(c1ccc2c(c1)OCO2)N1CC(=O)N2[C@H](CO)[C@@H](c3ccc(C#Cc4ccccc4)cc3)[C@@H]2C1 | ? | / | /
OC[C@H]1[C@H](c2ccc(C#Cc3ccccc3)cc2)[C@@H]2CN(CC3CCOCC3)CCCCN12 | ? | / | /
CCCN1[C@@H]2Cn3c(ccc(C4=CCCCC4)c3=O)[C@H]1[C@@H](C(=O)NCC(F)(F)F)[C@@H]2CO | 0 | 1 | -1.3
COc1ccc(NC(=O)N(C)C[C@@H]2OCc3cnnn3CCCC(=O)N([C@@H](C)CO)C[C@@H]2C)cc1 | 4 | 1 | 3.2
O=C(C1CCOCC1)N1CC2(C1)[C@H](c1ccccc1)[C@H](CO)N2CCC(F)(F)F | -1 | -16 | 15
CCCNC(=O)C[C@H]1CC[C@@H]2[C@H](COC[C@@H](O)CN2C(=O)c2cccnc2)O1 | 8 | 4 | 4.6
O=C(C[C@H]1C[C@@H]2c3cc(NC(=O)C4CCC4)ccc3O[C@@H]2[C@@H](CO)O1)NCc1ccccn1 | 4 | 4 | -0.5
C[C@H]1CCCCO[C@H](CN(C)C(=O)Nc2cccc3ccccc23)[C@@H](C)CN([C@@H](C)CO)C(=O)c2cc(NS(=O)(=O)c3cn(C)cn3)ccc2O1 | 1 | -2 | 2.5
Cc1noc(C)c1S(=O)(=O)N(C)C[C@H]1OCCCC[C@@H](C)Oc2ccc(NS(=O)(=O)c3cn(C)cn3)cc2C(=O)N([C@@H](C)CO)C[C@@H]1C | 1 | -1 | 1.4
O=C(NC1CCCCC1)N[C@@H]1CC[C@H](CC(=O)N2CCOCC2)O[C@@H]1CO | -1 | -3 | 2.5
O=C(Nc1ccc2c(c1)[C@@H]1C[C@H](CC(=O)N3CCOCC3)O[C@@H](CO)[C@@H]1O2)c1cccnc1 | 5 | 2 | 3.6
CN(C)Cc1cn(CC[C@@H]2CC[C@H](NC(=O)Nc3ccc4c(c3)OCO4)[C@@H](CO)O2)nn1 | 2 | 3 | -1.3
CC(C)C(=O)Nc1ccc2c(c1)C(=O)N(C)[C@@H]1CC[C@H](CC(=O)O)O[C@H]1CO2 | 2 | 0 | 1.8
O=C(NC[C@H]1[C@@H](c2ccccc2)[C@@H](CO)N1CC1CCCC1)c1ccncc1 | 1 | 1 | 0.1
C/C=C/c1ccc([C@@H]2[C@@H](CO)N3C(=O)CN(C(=O)c4ccc(F)cc4)C[C@H]23)cc1 | 5 | 1 | 4.7
C/C=C/c1ccc([C@H]2[C@H](CO)N3CCCCN(S(=O)(=O)c4ccc(OC)cc4)C[C@@H]23)cc1 | -6 | -13 | 6.7
COCCNC(=O)C[C@@H]1C[C@@H]2c3cc(NS(=O)(=O)c4ccccc4)ccc3O[C@@H]2[C@@H](CO)O1 | 3 | 1 | 2.3
COc1ccc(NC(=O)N[C@H]2CC[C@H](CCNS(=O)(=O)c3cccc(Cl)c3)O[C@@H]2CO)cc1 | -4 | 2 | -6.1
O=C([C@@H]1[C@@H](CO)[C@@H]2Cn3c(cccc3=O)[C@H]1N2CC1CCCC1)N1CCCCC1 | 17 | 14 | 3.0
CN(C)CC#Cc1ccc([C@@H]2[C@@H](CO)N3CCCCN(C(=O)Nc4cc(F)ccc4F)C[C@@H]23)cc1 | 9 | 13 | -3.5
CC(=O)N1[C@@H]2c3ccc(-c4cncnc4)c(=O)n3C[C@@H]2[C@@H](CO)[C@@H]1C(=O)NCc1ccccc1Cl | -1 | -1 | 0.2
O=C(c1cnccn1)N1CC(=O)N2[C@H](CO)[C@H](c3ccc(C#CCC4CCCC4)cc3)[C@@H]2C1 | 3 | -5 | 8.2
N#Cc1ccc(-c2ccc([C@@H]3[C@@H](CO)N4C(=O)CNC[C@@H]34)cc2)cc1 | 6 | 7 | -1.3

Bioassay records (PubChem BioAssay)

An excerpt (hit frequency here may not be typical).
